Rce1 inh: yeast Ras-converting enzyme inhibition | calls only | yeast membranes, quenched prenylated peptide cleavage fluorescence | 0.27% of 290,000 active | AID 2563 | Q03530;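 active means fall in fluorescence gain of 50% or more versus controls, with final raw signal at or below 3038400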;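 further: plate controls were neutral control wells for no effect and wells lacking membranes for full effect; tested at 10 µM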
Target sequence (Q03530 whole entry, looked up): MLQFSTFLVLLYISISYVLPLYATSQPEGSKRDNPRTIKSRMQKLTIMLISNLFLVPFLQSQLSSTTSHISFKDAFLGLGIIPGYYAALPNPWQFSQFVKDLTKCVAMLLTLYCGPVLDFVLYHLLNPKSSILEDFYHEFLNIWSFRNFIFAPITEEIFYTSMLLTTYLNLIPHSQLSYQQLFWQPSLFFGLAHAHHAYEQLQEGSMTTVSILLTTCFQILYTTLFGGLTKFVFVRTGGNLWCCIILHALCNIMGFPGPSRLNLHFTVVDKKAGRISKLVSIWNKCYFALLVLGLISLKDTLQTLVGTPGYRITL
eIF4H FP inh: inhibitors of RNA binding by human eIF4H | Q15056 | eIF4H fluorescence polarization binding assay | inhibition, % at 35 µM | 0.94% of 290,000 active;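 active means 50% or more with normal probe brightness, or confirmed in later tests; about a fifth of its hits are not listed in these tables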;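 further: calls also rest on retests at 20 µM and on dose response follow-up; 0% = protein and probe with vehicle and 100% = probe without protein; strong numbers were not always called active; many hits fall short of the cut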
PABP polyA inh: PABP-poly(A) binding inhibition. inhibition, % at 35 µM. 1% of 290,000 active. PABP-poly(A) RNA binding, fluorescence polarization. AID 2014;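 active means 50% or more with normal probe brightness, or confirmed in later tests; about a fifth of its hits are not listed in these tables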;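 further: calls also rest on retests at 20 µM and on dose response follow-up; controls were probe without protein and protein plus probe with vehicle; some compounds called inactive have numbers as strong as hits; many hits fall short of the cut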
CSC inhib: cancer stem cell inhibition. 1.1% of 300,000 active. AID 2717. cancer stem cell-like cells viability, luminescence. inhibition, % at 7.5 µM;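 active means mean at 75% or more and at least half the replicates too; tested in HMLE shEcad cells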;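 further: 0% = median of negative and 100% = median of positive control wells; the first replicate is given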
Env fusion inh: HIV envelope-mediated fusion inhibition. AID 651610. 1.1% of 360,000 active. inhibition, % at 12.3 µM. HeLa-JRFL Env/CEM21 cell fusion, luciferase;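 active means mean replicate inhibition score of at least 50 and every replicate individually at or above 50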;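 further: 0% = plate neutral controls and 100% = maraviroc near 300 nM; one replicate is shown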
MT1-MMP act inh: MT1-MMP (human) activation inhibition. P50281. HT1080 RFP-PRO-GFP cells, GFP/RFP ratio fluorescence, overnight; percent of plate control window, DMSO zero. GFP/RFP ratio change, % at 20 µM. 0.061% of 360,000 active. AID 651647;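 active means GFP/RFP ratio change of at least 30% with cell ATP level not reduced by more than half and red fluorescence within 50% of control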; further: strong numbers were not always called active
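Test system: HT1080 RFP-PRO-GFP cells; Benchmarks: DMSO and RFP-L50D-GFP cell wells; Timing: cells overnight before dosing, compound overnight, 37 °C, 5% CO2; Compound: one 20 µM compound dose with 1% DMSO; Read-out: GFP/RFP fluorescence ratio.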
UUG fidelity: modulators of start codon recognition fidelity in yeast; S. cerevisiae UUG-firefly luciferase reporter, luminescence/redox ratio; 0.13% of 350,000 active; activity score, % at 18.7 µM;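 active means replicate mean at a twofold rise or more, about +100% in these data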;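 further: firefly luciferase made from a UUG start codon reports start codon fidelity; reporter light over untreated wells divided by growth signal over untreated wells; some hits fall short of that in this replicate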
MT1-MMP act inh RFP: further read-out of MT1-MMP act inh, marked with its call; RFP signal change, %; measured here: RFP expression control read;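 0 = vehicle wells; hits needed this value within 50% of zero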
Active calls of the source: *; i = inactive; nt = not tested or not shown; + = active, no number; & = joins results of further samples. Some of the compounds tested; rates above refer to the full screens.

Each structure is followed by: Rce1 inh, eIF4H FP inh, PABP polyA inh, CSC inhib, Env fusion inh, MT1-MMP act inh, MT1-MMP act inh RFP, UUG fidelity
> Cc1ccc(OC(=O)CCC(=O)Nc2ccc(C(N)=O)cc2)cc1
→ i, nt, nt, -5, -6, 2, 1, -17
> S=C(NCCc1ccccc1)Nc1ccc(Nc2ccccc2)cc1
→ i, 4, -2, 20, 27, 8, -2, -30
> O=C1c2ccccc2C(=O)N1c1ccc(Br)c2cccnc12
→ i, 14, 3, 14, -8, 6, 5, -1
> CN(C(=O)c1ccncc1)C1CCCCC1
→ i, -9, 5, -4, 4, -3, 2, -19
> CCOC(=O)c1ccccc1NC(=O)/C=C/c1cc(OC)c(OC)c(OC)c1
→ i, -2, -9, 1, nt, 1, -3, 11
> CCOC(=O)Cc1csc(SCC(=O)/C(C#N)=C(\C)N)n1
→ nt, -7, -1, -3, -5, 6, 9, -3
> CCC(C)C(=O)N1c2ccccc2C(=C2SC(C(=O)OC)=C(C(=O)OC)S2)C(=S)C1(C)C (centres undefined)
→ i, -8, 7, 6, 8, 11, -4, -9
> O=C(c1sc(N2CCOCC2)nc1-c1ccccc1)N1CCCCC1
→ i, -7, -11, nt, 24, 1, 1, nt
> Clc1ncccc1-c1nc2ccccc2s1
→ i, 7, -8, -26, -95, -2, -3, nt
> CCOc1ccc(OCC)c(S(=O)(=O)NC2CC(C)(C)NC(C)(C)C2)c1
→ i, 4, -13, -10, -17, 4, -1, nt

In the list so far, these have two or more sulfur atoms:
Each structure is followed by: Rce1 inh, eIF4H FP inh, PABP polyA inh, CSC inhib, Env fusion inh, MT1-MMP act inh, MT1-MMP act inh RFP, UUG fidelity
> CCOC(=O)Cc1csc(SCC(=O)/C(C#N)=C(\C)N)n1
→ nt, -7, -1, -3, -5, 6, 9, -3
> CCC(C)C(=O)N1c2ccccc2C(=C2SC(C(=O)OC)=C(C(=O)OC)S2)C(=S)C1(C)C (centres undefined)
→ i, -8, 7, 6, 8, 11, -4, -9

Additional results.
Each structure is followed by: Rce1 inh, eIF4H FP inh, PABP polyA inh, CSC inhib, Env fusion inh, MT1-MMP act inh, MT1-MMP act inh RFP, UUG fidelity
> O=C(Cn1ncc2c(=O)oc3ccccc3c21)NCCC1=CCCCC1
→ i, -2, -6, 2, nt, -4, -4, -4
> COc1ccc(-c2nc(CS(=O)CC(=O)NCCc3ccc(OC)c(OC)c3)c(C)o2)cc1 (centres undefined)
→ i, -6, 6, -17, 3, -1, -3, nt
> Cc1ccc(Cl)cc1NC(=S)N(Cc1cccnc1)Cc1ccccc1Cl
→ i, 0, 10, 5, 8, -5, -5, -18
> C=CCOc1ccc(Cl)cc1-c1noc(-c2csc([C@H]3C[C@H](O)[C@@H](CO)O3)n2)n1
→ nt, nt, nt, nt, -18, -3, 2, -23
> COc1ccc(CNC(=O)C(=O)NCc2ccncc2)cc1
→ i, 5, -2, -4, 1, 0, 1, nt
> O=C(NC(=S)Nc1ccc2oc(=O)ccc2c1)c1ccccc1F
→ i, -6, -2, 1, -24, -3, -3, -4
> O=C(c1ccc(Cl)cc1)N(Cc1ccco1)C1CCS(=O)(=O)C1 (centres undefined)
→ i, -14, -19, -10, 4, 1, 1, 5
> COCCNC(=O)c1c(N)n(CCCn2ccnc2)c2nc3ccccc3nc12
→ i, 2, 6, -1, -30, 2, -1, -23
> O=C1CC(c2ccccc2)CN1S(=O)(=O)c1ccccc1 (centres undefined)
→ i, -8, -11, -38, 7, 8, 0, -7
> CCn1c2ccccc2c2cc(CN3CCN(S(=O)(=O)CC)CC3)ccc21
→ i, -1, 2, 10, 15, nt, nt, nt
> CCN(CC)S(=O)(=O)c1ccc(Cl)c(C(=O)Nc2ccc(Cl)cc2[N+](=O)[O-])c1
→ i, 3, 13, 7, nt, -14, -27, -15
> CSCCC(NC(N)=O)C(=O)NCc1cccc(Cl)c1 (centres undefined)
→ i, -12, 2, 1, -13, -6, 2, -17
> COCCCNC(=S)NNC(=O)c1ccc(C(C)(C)C)cc1
→ i, -2, -2, -11, -7, 5, 5, nt
> COc1ccc(OCCC(=O)NCc2ccccc2)cc1
→ i, 4, 2, 8, -17, 1, 4, -8
> O=C(O)C1C2C=CC3(CN(Cc4ccccn4)C(=O)C13)O2 (centres undefined)
→ nt, -1, 3, -1, -77, -1, 0, nt
> COc1cc(C2(c3ccc(O)c(OC)c3)C(=O)N(C)c3ccc(Br)cc32)ccc1O
→ nt, nt, nt, 30, 3, 0, 0, nt
> Cc1cccc(C)c1NC(=O)CC(NCCc1ccccc1)C(=O)O (centres undefined)
→ i, -1, -7, 4, -42, -2, 2, 10
> Cc1ccc(CNC(=O)COc2ccc(C)nc2[N+](=O)[O-])cc1
→ i, -4, 28, -2, -6, 2, 0, -20
> Cc1ccccc1C(=O)NC1CCN(CC(=O)Nc2ccc3c(c2)OCO3)CC1
→ i, 2, 0, -5, 2, -1, 1, nt
> C[C@@H]1COC(=O)[C@@H](CC(=O)OC(C)(C)C)C/C=C\C[C@@H](CC(=O)NCCO)C(=O)N1
→ nt, nt, nt, nt, -122, 3, 3, 1
> N#Cc1cccc(Nc2c3c(nc4ccccc24)CCC3)c1
→ i, 8, 2, -7, 6, 0, -7, -12
> CCOc1cc(-c2noc(CCCC(N)=O)n2)cc(Br)c1OC
→ i, -2, -18, -14, -42, -2, -4, -7
> O=C(NNC(=O)c1cccc2ccccc12)c1ccco1
→ i, -14, -22, -3, -6, -2, 0, -6
> CC1CCCC(NC(=O)c2cc(-c3ccncc3)nc3ccccc23)C1C (centres undefined)
→ nt, nt, nt, nt, -15, -1, -5, -11
> O=C(CN1CCCC1)Nc1ccc2c(c1)CCC2
→ i, 12, 10, nt, 1, 0, 2, nt
> O=C(C1=C(O)C(=O)N(CCCN2CCOCC2)C1c1ccccn1)c1cc2ccccc2o1 (centres undefined)
→ i, -7, 21, nt, nt, 1, 3, -19
> COc1cc2c(C)nc3c(c(C)nn3-c3ccccc3)c2cc1OC
→ i, 7, 0, -2, 5, 1, -4, -21
> CCOC(=O)CC1C(=O)NCCN1C(=O)Nc1ccc(Cl)cc1 (centres undefined)
→ i, -4, 7, -2, nt, 3, 4, 54
> CCS(=O)(=O)c1nc(S(=O)(=O)c2ccc(Cl)cc2)c(N2CCC(C(N)=O)CC2)s1
→ i, 2, -13, 28, 19, 0, 0, -6
> O=C(Nc1ccccc1)N1CCc2c([nH]c3ccccc23)C1C(F)(F)F (centres undefined)
→ i, 4, -6, -8, 3, nt, nt, 10
> CC(C)C[C@H]1CNC(=S)N1CC1CCCN1C[C@H](Cc1ccc(O)cc1)N1C[C@H](Cc2ccccc2)N(CC2CCCCCC2)C1=S (some centres undefined)
→ nt, nt, nt, nt, 58*, -16, -19, -8
> CC(c1ccccc1)C1CC(=O)N(CC(=O)O)C1=O (centres undefined)
→ i, -5, -2, -2, nt, 5, 3, -17
> COc1cccc(NC(=O)CN(C)C(=O)CNC(=O)c2ccc(Oc3ccccc3)cc2)c1
→ i, nt, nt, -8, -26, 6, -9, nt
> CC1(C(=O)NCc2ccco2)Cc2c(-c3ccc(C(N)=O)cc3)ccnc2O1 (centres undefined)
→ nt, nt, nt, nt, 31, -3, -14, -8
> O=C(NNc1cc(Cl)ccc1Cl)C1CCC1
→ i, -1, 11, -15, 16, 1, 2, -25
> C[C@H](NC(=O)c1ncn2c1c(=O)[nH]c1ccc(Br)cc12)c1ccccc1
→ nt, nt, nt, nt, 57*, -11, -18, -13
> CCC(=O)N1CCc2cc(Br)cc(S(=O)(=O)NC3CCN(Cc4ccccc4)CC3)c21
→ i, 10, 6, -7, 17, -2, -1, 2
> Cc1ccc(C(=O)NCCc2csc(C)n2)cc1
→ i, -10, 0, -6, -4, 0, 6, -8
> CNC[C@H]1Oc2c(NS(=O)(=O)c3cccs3)cccc2C(=O)N([C@H](C)CO)C[C@@H]1C
→ nt, nt, nt, -10, -20, 0, 0, 13&-9
> CCCCC(=O)Nc1ccc(C(=O)NNC(=S)NC(=O)c2ccccc2[N+](=O)[O-])cc1
→ i, 7, 6, -5, 0, -1, 1, -12
> Cc1ccc(C(=O)NCC(=O)Nc2ccc3c(c2)CCC3)cc1C
→ nt, nt, nt, nt, 4, -3, -2, 11
> CC(=O)Nc1cccc(C(=O)OCC(=O)NC(=O)c2ccccc2)c1
→ i, nt, nt, 7, 5, 3, 3, -11
> Nc1nc2n[nH]nc2c(=O)[nH]1
→ +, nt, nt, -11, nt, -29, -17, -3
> COc1ccc(-c2csc(N(CCCN(C)C)C(=O)c3ccc(Br)cc3)n2)cc1
→ i, -7, -12, 14, -5, -1, 2, -5
> O=C(COC(=O)CSCC(=O)N1CCCCC1)Nc1ccc(Cl)cc1
→ nt, -3, 5, -2, -90, 5, 10, -13
> COCCNc1oc(-c2cccs2)nc1S(=O)(=O)c1ccc(C)cc1
→ i, -14, -8, 3, -4, -2, 0, -7
> O=C(COC(=O)COc1ccccc1F)NC1CC1
→ nt, nt, nt, 2, nt, 3, 6, 6
> COc1ccc(CCN(C)CCN2C(=O)c3ccccc3C2=O)cc1OC
→ i, -8, -1, -19, nt, 1, 2, -12
> COc1ccc(-n2c(C)nn(CCOc3ccccc3)c2=O)cc1
→ i, 3, 2, -1, 5, 10, 17, nt
> COc1ccc(NC(=O)C(c2ccc(C)cc2)N(C)C(=O)CNC(C)=O)cc1 (centres undefined)
→ i, 44, -5, -4, -69, 2, -1, 15

Following part:
Each structure is followed by: Rce1 inh, eIF4H FP inh, PABP polyA inh, CSC inhib, Env fusion inh, MT1-MMP act inh, MT1-MMP act inh RFP, UUG fidelity
> Cc1cc(NC(=O)CSCC(=O)NCc2cccc(C(F)(F)F)c2)no1
→ i, nt, nt, -8, 13, 0, 2, nt
> CC(C)COn1c(=S)[nH]c2ccccc2c1=O
→ nt, 3, 4, -5, -25, 0, 1, -22
> Cc1ccc(N2CC(C(=O)NCc3nnnn3-c3ccc(C)c(C)c3)CC2=O)cc1 (centres undefined)
→ i, -1, 8, -5, 4, -3, 2, -10
> CC(=O)Nc1cccc(Oc2nc(C(F)(F)F)nc3ccccc23)c1
→ i, -12, -2, 3, 8, 6, 0, -14
> COC(=O)C(NS(=O)(=O)c1ccc(N2CCCC2=O)cc1)c1ccccc1 (centres undefined)
→ i, 0, -6, -2, 0, 1, -1, -3
> Cc1ccc(C(=O)NCCNC(=O)c2ccc(C)o2)o1
→ i, 11, -11, -8, 8, 1, -4, -23
> O=C1CC(c2ccc(S(=O)(=O)N3CCN(c4ccccc4)CC3)cc2)CN1 (centres undefined)
→ i, -6, -4, -5, nt, 0, -2, -20
> Cc1ccc(NC(=O)Cn2nc(-c3ccco3)ccc2=O)cc1Cl
→ i, -1, 10, -6, -23, -1, 0, 0
> Cc1nc(C(=O)NC(C)C)nn1-c1cc(Cl)cc(Cl)c1
→ i, -8, 4, -1, 8, -3, 0, nt
> CCCn1cnc2c(N)c(C)c(C)cc21
→ i, -6, 2, 10, -47, 3, 0, nt
> Cc1cc(C(=O)Nc2nc3ccc(S(C)(=O)=O)cc3s2)c(C)o1
→ i, -10, -6, 17, nt, 1, -2, 10
> Cc1ccc(S(=O)(=O)n2nc(-c3ccc(Cl)cc3)nc2NCc2ccco2)cc1
→ i, -3, 1, 46, 23, -7, -10, 10
> CC/C=C/C(=O)N1CC2(CC(c3cccc(NC(=O)CCCCC)c3)=NO2)C[C@H]1C(N)=O (some centres undefined)
→ i, -6, -2, -3, 3, 2, 2, 10
